# D2 ag: Beta-Arrestin HTS for Positive Allosteric Modulators of the Human D2 Dopamine Receptor: Agonists; D(2) dopamine receptor (Homo sapiens), P14416; DiscoveRx PathHunter D2 beta-arrestin, luminescence, 90 min; 100% = 57 uM dopamine signal; activation, % (concentration not given with the values); 0.084% of 360,000 active; in the data active = activation above about 40%; inconclusive = about 15% to 40%; inactive = below about 15%; also: compound concentration not given in the record; the text of the record calls up to 30% inactive
# Target sequence (P14416 whole entry, looked up): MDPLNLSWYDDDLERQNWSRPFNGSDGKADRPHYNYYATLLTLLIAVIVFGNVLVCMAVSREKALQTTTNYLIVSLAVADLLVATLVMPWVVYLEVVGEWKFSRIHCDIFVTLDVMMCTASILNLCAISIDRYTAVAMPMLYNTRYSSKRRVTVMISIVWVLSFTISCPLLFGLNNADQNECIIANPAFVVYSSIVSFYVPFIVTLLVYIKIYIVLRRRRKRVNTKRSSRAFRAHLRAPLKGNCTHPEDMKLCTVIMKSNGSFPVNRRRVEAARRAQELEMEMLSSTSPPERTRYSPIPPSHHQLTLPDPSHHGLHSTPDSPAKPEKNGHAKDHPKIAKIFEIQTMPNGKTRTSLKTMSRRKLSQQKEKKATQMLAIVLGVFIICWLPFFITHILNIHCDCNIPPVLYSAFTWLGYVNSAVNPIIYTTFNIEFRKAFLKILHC
#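 Agonist mode: compounds alone added to overnight-plated D2 PathHunter cells for 90 min at 37 C, with 57 uM final dopamine (EC100) defining full response. Beta-arrestin recruitment detected by chemiluminescent reagent, read after 1 h at ambient temperature.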
# gsp agonist: qHTS for Agonist of gsp, the Etiologic Mutation Responsible for Fibrous Dysplasia/McCune-Albright Syndrome: qHTS; gsp mutant cells, cAMP HTRF, 30 min; control for the full effect not named in the record; Potency, µM (series often up to 76.9 µM), inactives show top-dose activation (cAMP increase), actives largely listed as activators; 0.13% of 340,000 active; active = well fitted activation curve with a large enough effect; inconclusive = small, poorly fitted or top-dose-only effect, or another doubt; inactive = no such curve, though single readings can be large or run the other way; cell line not stated here;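 also: phosphodiesterase inhibitor Ro 20-1724 added with compounds to block cAMP breakdown; potency is read from the fitted curve at half-maximal effect; nearly all actives have a fitted effect of over 60% in size; about a fifth of the inactives were tested at one dose only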
#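 Cells stably selected in G418 were plated at 2000/well, grown 16-24 hr, then given compounds in DMSO with the PDE inhibitor […] (300 uM solution added) for 30 min at 37C; cAMP was read by HTRF.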
# Sfp PPTase inh: qHTS Assay for Inhibitors of Bacillus subtilis Sfp phosphopantetheinyl transferase (PPTase); Biochemical Sfp PPTase activity, qHTS; Potency, µM, inactives show max response, negative = inhibition, actives largely listed as inhibitors; 3.5% of 310,000 active; AID 1490, 2009; active = well fitted inhibition curve with a large enough effect; inconclusive = small, poorly fitted or top-dose-only effect, or another doubt; inactive = no such curve, though single readings can be large or run the other way;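 also: the enzyme is Sfp with the accession as filed and its product quenches rhodamine fluorescence; potency is read from the fitted curve at half-maximal effect; 0% = enzyme reaction without inhibitor and -100% = no enzyme wells; top concentration of the series not given in the record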
#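 Compounds were incubated with enzyme (final 15 nM) for 15 min at room temperature before substrate addition started the reaction. Fluorescence at 525 nm excitation, 598 nm emission was recorded immediately and after 30 minutes.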
# Menin MLL FP FL: qHTS Assay for Inhibitors Targeting the Menin-MLL Interaction in MLL Related Leukemias: Competition With Fluorescein Labeled MLL-derived Peptide; Fluorescence polarization, fluorescein-MLL peptide displacement from menin; FP activity change, % at 61.4 µM; 290,000 tested, under 10 active; inconclusive = falling polarisation curve, or a change in total fluorescence; inactive = total fluorescence flat and polarisation flat or rising; no compound was filed as active; the % refers to the polarisation; negative = inhibition;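 also: % of control where 0% means no effect; inhibitors lower the polarisation; unlabelled MLL peptide was the positive control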
# gsp antagonist: qHTS for Antagonists of gsp, the Etiologic Mutation Responsible for Fibrous Dysplasia/McCune-Albright Syndrome: qHTS; gsp-mutant cells, cAMP HTRF, 30 min; control for the full effect not named in the record; Potency, µM (titrated, usually from 76.9 µM), inactives show at the highest dose activity change, negative = inhibition, hits mostly inhibitors; 0.4% of 340,000 active; AID 624288, 2012; active = falling curve of any shape with a large fitted effect; inconclusive = falling curve, mostly with a smaller effect; inactive = flat or rising curve; cell line not stated here;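 also: intracellular cAMP measured with PDE inhibitor Ro 20-1724 present during compound exposure; potency is read from the fitted curve at half-maximal effect; % is scaled to controls: 0 for no effect and ±100 for the full control effect; nearly all actives have a fitted effect of over 65% in size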
#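 G418-selected cells were plated in DMEM/10% FBS for 16-24 h at 37C, then treated with compounds plus the PDE inhibitor […] (300 uM solution added) for 30 min at 37C. Intracellular cAMP was measured by HTRF after 30 min lysis at room temperature.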
# ClpP mod: qHTS Assay for Activators of ClpP. ATP-dependent Clp protease proteolytic subunit (Bacillus subtilis (strain 168)), P80244. purified B. subtilis ClpP, FRET peptide cleavage, 20 min. Potency, µM (doses to about 57.5 µM), without a hit: at the top dose activity change, negative = active. 1.9% of 340,000 active. AID 651965, 2013; active = well fitted falling curve with a large enough effect; inconclusive = small, poorly fitted or top-dose-only effect; inactive = no such curve, though single readings can be large or run the other way; also: potency is read from the fitted curve at half-maximal effect; the source files actives as falling curves though it sought activators and does not explain the sign; nearly all actives have a fitted effect of over 65% in size; many hits overshoot -100%
# Target sequence (P80244 whole entry, looked up): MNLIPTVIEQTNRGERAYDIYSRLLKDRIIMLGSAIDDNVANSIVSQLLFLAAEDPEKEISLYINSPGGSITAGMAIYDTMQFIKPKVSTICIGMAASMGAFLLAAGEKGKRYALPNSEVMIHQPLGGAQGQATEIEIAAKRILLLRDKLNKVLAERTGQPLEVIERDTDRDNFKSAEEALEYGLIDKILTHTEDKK
#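 Buffer: 100 mM Tris/HCl pH8, 100 mM KCl, 0.05% low protease BSA, 2.5% glycerol, 0.01% Tween-20. ClpP 10 microg/mL final; 20 min RT; delta FRET normalized to ADEP and DMSO controls.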
# PINK1 expr mod: A Quantitative High throughput Screen to Identify Chemical Modulators of PINK1 Expression; PINK1 immunofluorescence, high-content cytometry, 24 h; Potency, µM (top dose mostly 76.6 µM), for inactives: at the top dose activation (PINK1 increase), hits mostly activators; 0.2% of 410,000 active; AID 624263, 2012; active = well fitted activation curve with a large enough effect; inconclusive = small, poorly fitted or top-dose-only effect; inactive = flat fitted curve, though single readings scatter; cell line not stated here;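 also: potency is read from the fitted curve at half-maximal effect; % of control where 0% means no effect; nearly all actives have a fitted effect of over 65% in size; a mitochondrial uncoupler was the plate control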
#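 Cells are seeded, rested 12 hours, then given compound at five concentrations or DMSO for 24 hours. After fixation, blocking and antibody staining, PINK1 amount and mitochondrial localization are scored; CCCP serves as control.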
# * marks the source's active call; other numbers are inactive results; ? = inconclusive; . = no result given; [ ] = remark or other dose.
SMILES,D2 ag,gsp agonist,Sfp PPTase inh,Menin MLL FP FL,gsp antagonist,ClpP mod,PINK1 expr mod
C=CCC(NCc1ccccc1)c1ccc(C)o1 (centres undefined),-3.2,-43.9%[inhibitor],.,.,3.0%,-0.1%,-1.8%
CCOC(CNC(=O)CN1C(=O)COc2ccc(S(=O)(=O)N3CC(C)CC(C)C3)cc21)OCC (centres undefined),-2.2,-20.1%,18.6%,0.5,-0.8%,0.5%,1.0%
O=C(N/N=C/c1ccc(O)c([N+](=O)[O-])c1)C(O)(c1ccccc1)c1ccccc1,-3.8,-32.3%[inhibitor],3.4%,0.4,?,.,0.1%
O=C1CCC(=O)N1c1ccc(CSc2nnnn2C2CCCCC2)cc1,-1.1,10.9%,9.9%,0.0,7.6%,-0.6%,-0.6%
C[C@H](NC(=O)c1ccc(Cl)c(S(=O)(=O)N2CCOCC2)c1)c1nc2ccccc2[nH]1,1.6,5.2%,.,.,-4.3%,0.8%,-1.2%
Cc1noc(C)c1S(=O)(=O)N1CCCC(C(=O)NC2CCCCC2)C1 (centres undefined),-3.1,-2.4%,-0.4%,-1.5,0.6%,-0.3%,.
CN(C)C(=O)c1ccc(NC(=O)COC(=O)CC23CC4CC(CC(Br)(C4)C2)C3)cc1,2.8,-10.2%[15.4 µM],.,.,2.4%,.,-2.5%
COc1cccc(COC(=O)C2CCN(C(=O)c3ccc(F)cc3)CC2)c1OC,-1.5,-24.3%,.,.,-12.7%,-0.7%,-2.8%
CC1(c2nnc(-c3ccccc3)o2)CC(c2ccc(F)cc2)=NO1 (centres undefined),-2.3,-16.6%,-8.8%,11.1,-3.8%,-1.8%,2.4%
COCCNC(=O)Cn1cnc2ccc(S(=O)(=O)N3CCC(C)CC3)cc2c1=O,-4.6,?,6.2%,0.9,6.7%,-0.8%,-0.4%
CCCc1nnc(NC(=O)CCC(=O)N2CCN(c3ccccc3)CC2)s1,-2.1,-23.4%,7.7%,.,-9.8%,0.2%,-0.7%
Cc1ccc(S(=O)(=O)N(C)c2ccc(OCC(=O)O)cc2)cc1,-1.8,-0.5%,12.6%,1.6,?,-0.7%,1.5%
Cc1nc(-c2ccccc2)sc1-c1nc(-c2cccnc2)ncc1S(=O)(=O)c1ccccc1,-2.1,3.9%,-2.1%,-1.5,5.7%,?,0.3%
COc1ccc(NC(=O)NC2(C(=O)N3CCN4CCCC4C3)CCCCC2)cc1 (centres undefined),-5.4,-6.4%[15.4 µM],21.2%,-1.9,15.1%,1.2%,1.7%
Cc1ccc(NC(=O)CN2C(=O)CCS(=O)(=O)c3ccccc32)cc1Cl,-5.9,0.3%,1.2%,0.4,5.3%,-1.2%,-0.2%
Fc1ccc(CSc2nnc(-c3cc4c(s3)-c3ccccc3CC4)o2)cc1,-4.3,6.7%,0.9%,3.3,-5.9%,-14.3%,3.8%
CCOC(=O)N1CCN(S(=O)(=O)c2ccc(C(=O)Nc3nnc(CSC)o3)cc2)CC1,-1.6,0.3%[15.4 µM],8.9%,1.9,-28.0%,-0.6%,0.5%
Cc1ccsc1/C=N/NC(=O)Cc1ccc(Cl)cc1,-2.9,?,11.5%,2.0,2.3%,9.7%,5.8%
Cn1c(/C(C#N)=C/c2ccncc2)nc2ccccc21,4.4,19.8%,2.8%,48.0[activator],-1.7%,-2.2%,7.0%
Cc1nnc(SCc2nc3sc4c(c3c(=O)[nH]2)CCCC4)[nH]c1=O,-1.4,2.9%[15.4 µM],-29.4%,24.1,-2.0%,-16.6%,-0.9%
Cc1ccc(/C=N/NC(=O)c2c(-c3ccccc3)noc2C)o1,-1.4,-8.9%,3.7%,6.0,-9.1%,5.2%,0.1%
CC(=O)c1c(C(C)=O)c(C)n(NC(=O)c2cccnc2)c1C,0.2,-2.6%,7.8%,0.4,-2.0%,-1.4%,-2.5%[38.3 µM]
S=c1[nH]nc(C2CCCCC2)n1/N=C/c1ccc(Br)s1,-5.0,?,20.9%,5.3,-8.0%,3.9%,2.5%
COCC(=O)N1CCC2(CCCN(c3ccccc3)C2)CC1,.,.,13.1%,-1.0,.,.,-0.3%
CCCn1c(SCC(=O)Nc2cccc(S(=O)(=O)N3CCCC3)c2)n[nH]c1=O,-1.9,-0.4%,3.7%,-0.7,5.8%,0.6%,1.6%

# More structures.
SMILES,D2 ag,gsp agonist,Sfp PPTase inh,Menin MLL FP FL,gsp antagonist,ClpP mod,PINK1 expr mod
Cc1ccc(-c2nc(COC(=O)c3c(C)noc3C)cs2)cc1,-0.5,39.6%,-13.6%,0.1,-7.9%,-2.1%,?
Cc1ccc(NC(=O)COc2ccccc2)cc1Cl,0.8,-25.9%,13.1%,0.7,9.8%,.,3.6%
CCOC(=O)c1cccc(-c2c(-c3ccccc3)ncc3cc(OC)c(OC)cc23)c1,3.3,-2.6%,.,.,-1.2%,-14.4%,4.5%
CC1CCCC(NC(=O)COC(=O)c2sc3ccccc3c2Cl)C1C (centres undefined),-2.6,6.9%,2.6%,0.5,16.5%,-2.3%,4.4%
Nc1nnc(SCC(=O)NC2CCCCC2)n1-c1ccccc1,-1.3,-5.4%,-5.2%,0.6,10.3%,1.2%,2.1%
Cc1ccc(C2=NNC(=O)C(c3c[nH]c4ccccc34)C2)cc1 (centres undefined),-2.7,-121.1%[inhibitor],-8.9%,0.0,-7.7%,-0.4%,1.6%
CCN(C(=O)COC(=O)C1=COCCO1)c1ccccc1,-7.7,?,.,.,10.6%,-0.6%,1.0%
CCCCCC1CC(CC(=O)Nc2nncs2)C(=O)O1 (centres undefined),-5.5,-22.6%,7.2%,-5.3,7.0%,0.8%,-0.9%
COC(=O)c1ccc(NC(=O)COc2coc(CN3CCc4ccccc43)cc2=O)cc1,-3.6,-10.7%,.,.,14.8%,1.1%,0.8%
CN(CC(=O)Nc1cccc(F)c1)C(=O)c1ccc(N2CCCCC2)c([N+](=O)[O-])c1,-6.2,-19.4%,.,.,-17.4%,-0.4%,7.2%
O=C(Cn1ncc2c3ccccc3n(Cc3ccccc3F)c2c1=O)NCC1CCCO1 (centres undefined),2.6,-4.2%,-5.4%,.,-0.6%,4.1%,-0.2%
O=C(O)C(Cc1c[nH]c2ccccc12)N1CCS(=O)(=O)CC1 (centres undefined),-2.9,-4.4%[15.4 µM],10.6%,-1.4,-10.7%,.,-0.4%
Cc1ccc(C2=NS(=O)(=O)N(C)C(C(=O)Nc3cc(C)n(CC(=O)N4CCCCC4)n3)=C2)cc1,4.9,2.9%,6.2%,.,-6.8%,.,0.3%
CSc1nc(NS(=O)(=O)c2cc(Br)ccc2Br)cc(=O)[nH]1,1.4,-52.6%[inhibitor],11.1%,-2.2,0.4%,.,1.5%
COc1ccc(Cl)cc1S(=O)(=O)N1CCN=C1Cc1ccccc1,-2.2,23.5%[15.4 µM],12.5%,.,-4.7%,0.6%,-0.7%
O=C(CCNC(=O)c1ccc([N+](=O)[O-])cc1)Nc1ccc(Cl)c(S(=O)(=O)N2CCOCC2)c1,?,-0.3%,.,.,-12.0%,-0.2%,0.1%
CCOc1ccc(-n2c(C)cc(/C=C3/C(=N)N4C(=NC3=O)SN=C4S(C)(=O)=O)c2C)cc1,7.3,-16.4%,-25.3%,?,31.6µM*,-7.5%,1.3%
CCOC(=O)Nc1cc(NC(=O)OCC)ncn1,2.0,-1.7%,.,.,-0.3%,-0.4%,1.5%
COc1ccc(CN(C)CC(=O)N(C)CC(=O)Nc2ccccc2Br)cc1F,-3.4,?,.,.,1.9%,0.6%,0.1%
O=C(NCc1ccco1)C1(c2ccc(Br)cc2)CCCC1,0.2,6.1%,2.5%,5.8,-7.2%,-1.8%,-2.1%[38.3 µM]
CC(NS(=O)(=O)c1ccc2c(c1)C(C)(C)C(=O)N2C)c1ccccc1 (centres undefined),-0.5,10.1%,6.3%,-7.1,-2.4%,-0.5%,0.3%
Cc1ccc(S(=O)(=O)Nc2ccnc3ccccc23)cc1,2.4,0.3%,12.8%,0.9,-9.0%,-1.9%,1.1%
Cc1cc(OC(=O)c2ccc(Cl)cc2Cl)c([N+](=O)[O-])c(=O)[nH]1,-1.6,-37.8%[inhibitor],14.6%,-0.4,7.4%,0.4%,-0.5%
Cc1ccc(S(=O)(=O)NCCSc2ncccn2)cc1,-6.9,-4.5%,-3.9%,-1.7,-9.3%,-0.9%,1.2%
C/C(=N\NC(=O)c1c(Cl)cnn1C)c1cccc(NC(=O)c2ccc(C)cc2)c1,5.7,19.6%,10.4%,.,?,1.1%,4.5%

# Continuation.
SMILES,D2 ag,gsp agonist,Sfp PPTase inh,Menin MLL FP FL,gsp antagonist,ClpP mod,PINK1 expr mod
CCOC(=O)c1c(C)[nH]c(C(=O)COC(=O)c2[nH]c(C)c(C(C)=O)c2C)c1C,5.1,0.6%,-9.6%,1.0,?,1.2%,?
CC(CN1CCCCC1)OC(=O)COc1ccc(Br)cc1 (centres undefined),-4.5,-8.5%,5.9%,-8.4,9.7%,0.2%,0.2%
O=C(CCC1CCCN(Cc2ccc3c(c2)CCO3)C1)NCc1ccc(F)c(F)c1 (centres undefined),-2.5,-6.5%,-0.9%,-1.8,-4.4%,-0.6%,0.3%
CCOc1cc2[nH]c(=S)n(Cc3ccc(C(=O)O)cc3)c(=O)c2cc1OCC,-0.8,20.5%,-23.1%,-3.8,-27.4%,-0.5%,-1.5%
COc1ccc(/C=N/NC(=O)c2cc(OC)c(OC)c(OC)c2)cc1CN1CCc2cc(OC)c(OC)cc2C1C (centres undefined),1.0,-20.5%[15.4 µM],17.0%,-0.7,7.4%,-0.4%,8.1%
CCCCN(CC)CCNC(=O)Cn1cnc2sc(C)c(S(=O)(=O)N3CCOCC3)c2c1=O,-0.4,-0.7%,15.8%,-1.9,-2.2%,0.8%,0.1%
